Calb biofilm kill = mixture kills Candida albicans biofilm cells; AID 1242; inhibition, % at 7.6 µM; C. albicans biofilm persisters + clotrimazole, fluorescence viability; primary screen in compound mixtures of four per well; 120,000 tested, 0.02% active;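 active = inhibition above 30.3% in the primary screen of four-compound pools, then above 30% when the compound was retested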;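 also: compounds exposed to preformed 24 h biofilms for 48 h; the number belongs to the whole pool; some results filed as inactive read as strong as hits; inactives centre near 12; 0% = biofilm with clotrimazole alone and 100% = kill control; retested singly at about 60 µM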
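System: C. albicans CAF4-2 wild-type biofilms; Medium: RPMI/MOPS medium, pH 7.0; Reagent: Clotrimazole, 50 µg/mL; Times: biofilm formation 24 h, compound exposure 48 h, 37 °C; Detection: 2-h Alamar Blue fluorescence, 535/590 nm excitation/emission; Evaluation: percent inhibition of biofilm viability.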
Active calls of the source: *. An excerpt, so the mix of outcomes need not match the whole.

SMILES	Calb biofilm kill
O=C(NCc1nc2ccccc2[nH]1)C1=C[C@@H](c2ccc(Br)cc2)C[C@@H](OCc2ccc(CO)cc2)O1	13
O=C(Nc1ccn(Cc2ccccc2)n1)c1cccc(F)c1	9
CCCCc1c(C)nc2ccc(Br)cc2c1SCCC#N	5
CN1CCCN(C(=O)/C=C/c2ccc(Cl)cc2Cl)CC1	4
O=C(O)c1cc(-c2cc3ccccc3o2)nn1-c1ccccc1	13
CCC1=C(OC(=O)N(CC)CC)N2C(=O)OC(=NCCOC)[C@]2(Cc2ccccc2)[C@H]2C1=CC[C@H]1C(=O)N(CC(=O)OC)C(=O)[C@H]12	11
O=C(NC(=S)Nn1cnnc1)c1cccc(Br)c1	19
Cc1ccc(CCCOC(=O)C[N+]2(C)CCCC2)cc1	21
COC(=O)N/N=C\c1ccc(-c2cc(Cl)c(Cl)cc2Cl)o1	5
Cc1nn(C)cc1-c1n[nH]c(=S)n1-c1ccc(F)cc1	19
O=C(NCc1cccnc1)C(=O)Nc1nc2ccccc2s1	4
O=C(CCSCCC(=O)Nc1c(F)c(F)c(F)c(F)c1F)Nc1c(F)c(F)c(F)c(F)c1F	7
CCn1c(SCc2ccc(F)cc2)nc2c(c1=O)SCC2	21
COc1ccc(N(C)C(=O)Nc2ccc3nsnc3c2)cc1	-1
COc1ccccc1/C=C1/C(=O)N(c2cc(C)cc(C)c2)C(c2cccc([N+](=O)[O-])c2)S1(=O)=O (stereo unspecified)	12
COc1ccccc1-n1cccc1C=O	4
O=C(Nc1ccc(C(=O)Oc2ccccc2)c(O)c1)c1ccccc1	10
CC(C)S(=O)(=O)C1=NSC2=NC(=O)/C(=C\c3ccc(-c4ccccc4)o3)C(=N)N21	25
COc1ccccc1Nc1nc(NCCO)nc(N)c1[N+](=O)[O-]	32
COc1ccc(CC(=O)NCCC2=CCCCC2)cc1	-11
Cc1cc(C)c2c(=O)[nH]c(SCC(=O)NCCc3ccccc3)nc2n1	4
CC1Cc2ccccc2N1CC(=O)NC(=O)NC1CCCC1 (stereo unspecified)	13
Cc1ccsc1-c1nc(CN2C[C@@H](C)O[C@@H](C)C2)c(C)o1	9
Cc1c(Nc2c3ccccc3nc3ccccc23)c(=O)n(-c2ccccc2)n1C	16

By substructure, the entries above containing an aryl methoxy group (five)
SMILES	Calb biofilm kill
COc1ccc(N(C)C(=O)Nc2ccc3nsnc3c2)cc1	-1
COc1ccccc1/C=C1/C(=O)N(c2cc(C)cc(C)c2)C(c2cccc([N+](=O)[O-])c2)S1(=O)=O (stereo unspecified)	12
COc1ccccc1-n1cccc1C=O	4
COc1ccccc1Nc1nc(NCCO)nc(N)c1[N+](=O)[O-]	32
COc1ccc(CC(=O)NCCC2=CCCCC2)cc1	-11

Continuation:
SMILES	Calb biofilm kill
CCCC(=O)NC(=S)Nc1cccc(NC(=O)c2ccccc2)c1	6
Cn1c(N)c(C(=O)Nc2c(Cl)cccc2Cl)sc1=S	24
CCOC(=O)C1=NN(c2ccc(C)cc2)CC1C(=O)OC (stereo unspecified)	5
Cc1ccc(Cl)cc1NC(=O)COC(=O)Cn1cnc2c1c(=O)n(C)c(=O)n2C	11
O=C(CNC(=O)c1ccc(Cl)cc1)OCC(=O)N1CCCC1	5
O=C(CSc1nnnn1C1CCCCC1)NNC(=O)c1ccco1	22
CCOC(=O)Nc1ccc([N+](=O)[O-])cc1C	11
c1cc2c(cn1)cnc1cscc12	13
Cc1ccc(OCC(=O)N2CCN(C(=O)c3ccncc3)CC2)cc1	9
Cc1[nH]n(-c2ncc(-c3ccccc3)s2)c(=O)c1C(c1ccc(Br)cc1)C(C#N)C#N (stereo unspecified)	13
COCC(C)n1c(C)cc(C(=O)COC(=O)CCc2nc3ccccc3c(=O)[nH]2)c1C (stereo unspecified)	-2
COc1ccccc1NC(=O)c1c(Br)cnn1C	9
C=CCc1cccc(/C=N/NC(=O)C(C)Nc2cccc(C)c2)c1O (stereo unspecified)	5
COc1cccc(/C=C/C(=O)c2ccc(NC3=NCCCS3)cc2)c1	11
N#Cc1c(-n2cccc2C=O)sc2c1CCCC2	18
CCN(CC)C(=O)COc1ccc2c(c1)C(=O)CC(C)(C)O2	10
Cn1c(=S)n(C)c2ccccc21	6
C=C(C)C1CC=C(C)/C(=N/NC(=O)C2CC2c2ccccc2)C1 (stereo unspecified)	7
O=C(c1cccc([N+](=O)[O-])c1)N1CCN(c2cccc(Cl)c2)CC1	15
O=C(CSc1ncnc2scc(-c3ccccc3)c12)NCc1ccc2c(c1)OCO2	5
Fc1ccccc1CNCCC(Cc1ccccc1)c1ccc2c(c1)OCO2 (stereo unspecified)	19
COc1ccc(NC(=O)CN(C)CC(=O)Nc2ccc3c(c2)CCC3)cc1	8
O=C(CCc1nnc(CCc2c[nH]c3ccccc23)o1)NC1CCC1	19
COc1ccc(N(C(=O)COc2ccc(F)cc2)S(=O)(=O)c2ccc(C)cc2)cc1	21
O=C(O)Cn1c(=S)sc2ccccc21	17
O=C(C1=NN[C@@H]2C(=O)N(c3ccccc3C(F)(F)F)C(=O)[C@H]12)c1ccc2ccccc2n1	19
CCCCC12CN3CCN(CC(C3)/C1=N\NC(=O)Nc1ccccc1)C2	2
Cc1cc(C)n(C(=O)CNc2ccc(C)c(C)c2)n1	13
O=C(CN(C(=O)CNC(=O)c1ccco1)c1ccc2c(c1)OCCO2)NC1CCCCC1	21
COc1cccc(NC(=O)N2CCN(c3nc(-c4cccc(OC)c4)cs3)CC2)c1	-5
C/C(=N\NC(=O)c1nc2ccccn2c1C)c1cccc([N+](=O)[O-])c1	1
O=C1c2cccc(OCC(=O)N3CCCc4ccccc43)c2CCN1Cc1cccnc1	4
O=C(/C=C/c1ccc([N+](=O)[O-])cc1)Nc1ncc([N+](=O)[O-])s1	14
CCNC(=S)N1CCCCC1CO (stereo unspecified)	18
CCC(=O)N1CC2(c3ccccc3)CN(C(=O)CC)CC(c3ccccc3)(C1)C2=O	6
CCc1ccc(NC(=O)CN(c2ccccc2)S(=O)(=O)N(C)C)cc1	16
Cc1ccc2cc3c(N)[nH]nc3nc2c1	6
CCN1C(=O)C(CC(=O)Nc2ccc(Cl)cc2)N(NC(=O)c2ccncc2)C1=S (stereo unspecified)	-35
CCOC(=O)C1(CC2CC2)CCN(Cc2cnc(-c3ccccc3C)nc2)CC1	20
Cc1ccc(S(=O)(=O)N2CCCCC2)cc1NC(=O)CN1C(=O)CN(C)C1=O	13
CCn1cc(C(=O)NCCc2ccccc2)c(=O)c2cc(S(=O)(=O)N3CCCC3)ccc21	13
COc1cccc(C2=NN(C(=O)c3ccco3)C(O)(C(F)(F)F)C2)c1 (stereo unspecified)	13
COc1cccc2nc3cc(C)c(C)cc3nc12	27
COC(=O)CC1C(=O)NCCN1C(=O)c1ccc(S(=O)(=O)N2CCOCC2)cc1 (stereo unspecified)	8
O=C(CNC(=S)NC(=O)c1ccc(F)cc1)c1ccccc1	16
COc1cccc(CNc2ccc(C(=O)O)cc2)c1OCc1ccccc1	14
COc1ccc(/C=N/NC(=O)c2ccc(N(C)S(=O)(=O)c3ccccc3)cc2)c(OC)c1	15
CCOC(=O)c1ccc(-n2c(CN3CCC(O)CC3)nc3ccc([N+](=O)[O-])cc3c2=O)cc1	18
Cc1cccc(NC(=O)CSc2nnc(CN3CCOCC3)n2C)c1C	6
COc1ccc(Nc2c(-c3ccco3)nc3cccc(C)n23)cc1	1
CC1(C)C2CCC1(CS(=O)(=O)NC1CCCC1)C(=O)C2 (stereo unspecified)	18
CC(=O)Nc1ccc(C(=O)Nc2nc(-c3ccccn3)cs2)cc1	17
CS(=O)(=O)NCCNc1cc(Cl)ccc1[N+](=O)[O-]	6
Oc1ccc(N=Nc2ccc3c(c2)OCCO3)c2ncccc12	33
O=C(Nc1cccc(S(=O)(=O)N2CCCCCC2)c1)c1ccc2ccccc2n1	25
O=C(N/N=C/c1cccc([N+](=O)[O-])c1)c1cc(-c2ccc3c(c2)OCO3)n[nH]1	7
CC(=O)c1ccc(-n2c(-c3cc(-c4ccsc4)n[nH]3)n[nH]c2=S)cc1	12
O=C(COC(=O)c1cccc(S(=O)(=O)N2CCc3ccccc32)c1)Nc1ccc(Cl)cn1	3
Oc1[nH]c2ccc(Br)cc2c1N=NC(=S)NCC1CCCO1 (stereo unspecified)	0
COc1cc(CC(=O)N/N=C/c2ccccc2)c([N+](=O)[O-])cc1OC	15
Continuation.
SMILES	Calb biofilm kill
CCc1nnc(NC(=O)c2ccc(Cl)c(S(=O)(=O)N3CCc4ccccc4C3)c2)s1	-9
CCN(CC)C(=O)Cn1c(=O)oc2ccccc21	12
O=C(c1ccccc1O)N1CCOCC1	26
Nc1nc(SCC(=O)NCc2ccc3c(c2)OCO3)n[nH]1	12
CCOC(=O)c1ccc(S(=O)(=O)NNC(=O)COc2ccc(C)cc2)cc1	11
CCc1ccc(C(=O)N/N=C/c2ccc(Cl)cc2Cl)nc1	17
O=C(COC(=O)CCc1nc2ccccc2c(=O)[nH]1)NC(c1ccccc1)c1ccccc1	10
CSc1ccccc1C(=O)Nc1cccc([N+](=O)[O-])c1C	9
O=S(=O)(c1cccc2nonc12)N1CCN(c2ccc(F)cc2)CC1	9
COC(=O)C1=C(C)NC(C)=C(C(=O)OC)C1c1ccc(-c2cccc([N+](=O)[O-])c2)o1	24
CCNC(=S)N1CCN(S(=O)(=O)c2cccc(C(F)(F)F)c2)CC1	20
O=C(NCc1ccccc1Cl)c1ccc(Br)o1	-2
N#C/C(=C\c1cn[nH]c1-c1ccccc1Br)C(=O)O	31
COc1cc2[nH]c(=S)n(Cc3ccc(F)cc3)c(=O)c2cc1OC	20
COC(=O)NNC(=O)CCCOc1ccc(Cl)cc1Cl	19
Cc1cccc(CN2CCN(C(c3ccccc3)c3ccc(Cl)cc3)CC2)c1 (stereo unspecified)	10
COc1cccc(NC(=S)N(CCN(C)C)C(C)c2ccncc2)c1 (stereo unspecified)	22
CCOC(=O)C1(Cc2ccccc2)CCCN(Cc2ccc(OCC)c(CO)c2)C1 (stereo unspecified)	9
CCCc1nnc(NC(=O)CCC(=O)NCCc2ccc(OC)c(OC)c2)s1	7
COc1ccc(Nc2nc(CC(C)=O)ns2)cc1	19
Cc1sc(NC(=O)CN(Cc2ccccc2)C(=O)C2CC2)c(C(N)=O)c1C	-4
COc1cccc(N/C=C/c2onc(C)c2[N+](=O)[O-])c1	7
CC(C)(C)c1cc(NCc2ccccn2)n2ncc(-c3ccc(Cl)cc3)c2n1	-8
O=C(c1ccc(Cl)cc1)N1CCN=C1c1ccccc1	10
Oc1c(C=Nc2ccccc2)sc2ccccc12	18
O=C(Nc1nc(-c2ccccc2)cs1)c1ccco1	8
COc1ccc(CCN(C)C(=O)C2CCN(Cc3ccc(C)cc3)CC2)cc1OC	1
Nc1nnnn1/N=C/c1cccc(OCc2ccccc2Cl)c1	14
CC1(C)CC(=O)c2cc(O)ccc2O1	12
COc1ccc(C(=O)Nc2ccc(OC)c([N+](=O)[O-])c2)cc1Br	8
COc1ccccc1CNC(=O)C1CC2Cn3c(nc4ccccc43)C2N1C (stereo unspecified)	13
OC(COc1cccc2ccccc12)CN1CCN(c2ccccc2)CC1 (stereo unspecified)	23
CCOc1ccc(NC(=O)c2cc3cc4ccc(C)cc4nc3o2)cc1	5
Cn1c2ccccc2c(=O)c2c(=O)n(Cc3ccco3)c(-c3ccc(Cl)cc3Cl)nc21	18
COc1ccc2c(=O)c3c(=O)n(CCc4ccccc4)c(C(C)C)nc3oc2c1	20
O=C(c1ccc([N+](=O)[O-])c(CS(=O)(=O)c2ccc(Cl)cc2)c1)N1CCCC1	27

Overlap with the part before: 4 entries, followed by the next part.
SMILES	Calb biofilm kill
CCOc1ccc(NC(=O)c2cc3cc4ccc(C)cc4nc3o2)cc1	5
Cn1c2ccccc2c(=O)c2c(=O)n(Cc3ccco3)c(-c3ccc(Cl)cc3Cl)nc21	18
COc1ccc2c(=O)c3c(=O)n(CCc4ccccc4)c(C(C)C)nc3oc2c1	20
O=C(c1ccc([N+](=O)[O-])c(CS(=O)(=O)c2ccc(Cl)cc2)c1)N1CCCC1	27
Cc1cc(C)nc(N/N=C/c2cc(Br)ccc2O)n1	14
CN(C)CCCNC(=S)NCCNc1nc2cc3c(cc2cc1C#N)OCO3	6
COC(=O)c1cccn(CC(=O)c2ccc(Cl)cc2Cl)c1=O	9
CCOC(=O)C(=CNc1cc(OC)ccc1-n1cccc1)C(=O)OCC	18
CC(=O)c1ccc(Nc2c(C)n(C)n(-c3ccccc3)c2=O)cc1	13
O=S(=O)(/C=C/c1ccccc1)Nc1ccc(F)cc1	5
COc1ccc(/C=C/C(=O)NC(C)CCc2ccccc2)cc1 (stereo unspecified)	14
COc1cccc(C(=O)O/N=C2\CCS(=O)(=O)c3sccc32)c1	12
COc1ccccc1CN(CC(=O)NCc1ccc2c(c1)OCO2)C(=O)c1ccc2c(c1)OCCO2	17
CCCCC1=NN(C(=O)c2cccnc2)C(O)(C(F)(F)F)C1 (stereo unspecified)	16
COc1ccc(C2=NOC(COc3ccc4c(C)cc(=O)oc4c3)C2)c(OC)c1 (stereo unspecified)	18
O=[N+]([O-])C1=CC=C2C(=NC3(CCCCC3)N2O)C1=NCCc1ccccc1	14
CC1CC(C)(C)NC(=S)N1CCC(=O)Nc1ccc2c(c1)OCCO2 (stereo unspecified)	4
COC(=O)c1ccc(CO/N=C(\NC(C)=O)c2nonc2NC(C)=O)cc1	12
S=C(NCC1CCCCC1)Nc1ccc(Oc2ccccc2)cc1	4
CC(C)=CCN1CCN(Cc2cccc3nccnc23)CC1CCO (stereo unspecified)	4
C/C(=N\Nc1ccc(Cl)cc1)c1c(O)cc(C)oc1=O	21

Screens: PubChem, PCMD
